CBX7 inh: blocks human CBX7 binding to H3K27me3 peptide; AlphaScreen His6-CBX7 / biotin-H3K27me3 peptide binding; hits give low values; normalised signal (fraction of DMSO) (no concentration beside the values); 66,000 tested, 1.1% active; AID 1224903; in the data active = normalised signal below about 0.5;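 also: 100 nL library stock added to about 20 µL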
Target sequence (O95931 whole entry, looked up): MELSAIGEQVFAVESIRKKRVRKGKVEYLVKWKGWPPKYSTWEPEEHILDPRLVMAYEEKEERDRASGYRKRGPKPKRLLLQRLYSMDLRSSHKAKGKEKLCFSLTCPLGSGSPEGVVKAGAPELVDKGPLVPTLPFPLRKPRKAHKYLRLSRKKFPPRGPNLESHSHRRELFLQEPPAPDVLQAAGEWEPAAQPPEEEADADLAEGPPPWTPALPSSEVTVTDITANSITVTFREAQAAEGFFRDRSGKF
CBX7 inh z-score: further read-out of CBX7 inh, marked with its call; z-score; measured here: z-score of CBX7 signal; some inactives read as strong as hits; reference of the scale not given here;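 same signal on another scale; lower means less binding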
Active calls of the source: *; & = joins results of further samples. Some of the compounds tested; rates above refer to the full screens.

Each structure is followed by: CBX7 inh | CBX7 inh z-score
1. Cn1cc(CNC(=O)c2cc(-c3ccccc3)nc3ccc(Br)cc23)cn1
 : 0.99 | -0.37
2. Cc1ccc(NC(=O)c2ocnc2C)cc1Cl
 : 0.98 | -0.38
3. CCCn1c(C(C)NC(=O)CC)nc2ccccc21 (centres undefined)
 : 1.1 | 1.4
4. Cc1ccc(NC(=O)CSc2nnc(CNC(=O)c3ccccc3F)o2)cc1
 : 1.1 | 2
5. COc1ccc(OC)c(Nc2nc3ccccc3nc2-n2nc(C)cc2C)c1
 : 1.7 | 16
6. COc1ccc(Br)cc1C1CC(=O)Nc2c1ccc(C)c2C (centres undefined)
 : 0.97 | -0.041
7. O=C(NCc1ccc(F)cc1)C(Cc1ccccc1)NS(=O)(=O)c1cccc2cccnc12 (centres undefined)
 : 1.1 | 0.77
8. CCc1cccc(C)c1-n1nnnc1C1(Nc2cccc(C(F)(F)F)c2)CCCCC1
 : 1.1 | 3.3
9. O=C(C1CCCN(S(=O)(=O)c2cccs2)C1)N1CCN(c2ccccc2Cl)CC1 (centres undefined)
 : 0.99 | -0.56
10. COc1ccc(NC(=O)c2c(NCc3cc(OC)ccc3OC)sc3c2CCCC3)cc1
 : 0.55 | -6.3
11. Cc1ccc(CN2CCN(CC(=O)NCCCN3CCOCC3)C2=O)cc1
 : 1 | 0.17
12. CN(CC(=O)Nc1ccc(F)cc1F)S(=O)(=O)c1cccc2cccnc12
 : 0.79 | -2.4
13. Cc1nc2ncnn2c(C)c1CCC(=O)Nc1ccccc1C(N)=O
 : 1.1 | 1.7
14. COc1cccc(C2=NOC(C(=O)NC(C)c3ccccc3)C2)c1 (centres undefined)
 : 0.98 | -0.3
15. COc1ccc(OC)c(NC(=O)CCc2c(C)nc3cc(-c4cccc(F)c4)nn3c2C)c1
 : 0.89 | -2.6
16. CCC(C(=O)N1CC(=O)Nc2ccc(F)cc2C1c1ccc(F)cc1)c1ccccc1 (centres undefined)
 : 0.88 | -0.16
17. O=C(NCc1ccc(F)cc1)c1cc2c(s1)CS(=O)(=O)C2
 : 1.1 | 2.3
18. Cc1ccc(-c2nc3cc(Cl)c(Cl)cc3nc2-c2ccc(C)cc2)cc1
 : 1.5 | 1.7
19. CCc1nnc(NC(=O)c2ccc(S(=O)(=O)N3CC(C)OC(C)C3)cc2)o1 (centres undefined)
 : 0.67 | -3.2
20. CCc1ccc(NC(=O)C2CCCN2S(=O)(=O)c2ccc3c(c2)CCC(=O)N3)cc1 (centres undefined)
 : 0.99 | -0.22
21. O=c1[nH]c(-c2ccc3c(c2)OCO3)cn1-c1ccc(F)cc1
 : 0.91 | -2.1
22. CN(C(=O)Cc1c(C(=O)O)[nH]c2ccc(Cl)cc12)c1cccc(C(F)(F)F)c1
 : 1 | 0.28
23. CCOC(=O)c1c(NC(=O)c2onc(C)c2Cl)sc2c1CCCC2
 : 1.1 | 2.2
24. COc1ccc(-c2cc(C(F)(F)F)n3nc(C(=O)N4CCCCC4)c(Cl)c3n2)cc1
 : 1.2 | 1.3
25. CCCCNC(=O)c1cn(-c2ccc(OCC)cc2)c(=O)c2cc(OC)c(OC)cc12
 : 1 | -0.036
26. OCc1nc2ccccc2n1CCOc1ccccc1
 : 0.95 | -0.18
27. COCCCNC(=O)c1cc2c(-c3ccc(OC)c(OC)c3)nn(C)c2s1
 : 1 | 0.92
28. COc1cccc(NC(=O)N(Cc2ccc(C)cc2)Cc2cccnc2)c1
 : 0.86 | -0.14
29. Cc1cccc(NC(=O)CCn2nc(-c3ccc(Cl)cc3)c3ccccc3c2=O)c1
 : 0.93 | -2.1
30. CCCNC(=O)Cn1cnc2sc(C(=O)N(C)C3CCCCC3)c(C)c2c1=O
 : 1.1 | 1.7
31. Cc1ccc(NC(=O)CSc2nccn2-c2ccccc2)cc1Cl
 : 0.57 | -9.3
32. CCC1=Nc2cc(C(=O)N3CCN(c4cc(C)ccc4C)CC3)ccc2Sc2ccc(C)cc21
 : 0.83 | -2.5
33. CC(C)CCNC(=O)c1cc(-c2ccncc2)nc2ccc(S(=O)(=O)N3CCC(C)CC3)cc12
 : 1 | 0.43
34. COc1ccc(NC(=O)c2c(NCc3cccc(F)c3)sc3c2CCC3)c(OC)c1
 : 0.86 | -0.16
35. COc1ccc(-n2c(-c3ccc(C)cc3)cc3c2CC(C)(C)CC3=O)cc1
 : 0.95 | -0.31
36. CCSc1oc(-c2cccs2)nc1S(=O)(=O)c1ccc(Cl)cc1
 : 1 | 0.041
37. CCC1Oc2ccccc2N(CC(=O)NCCN(C)C)C1=O (centres undefined)
 : 0.83 | -1.8
38. CC(C)c1ccc(-n2c(CCC(=O)O)ccc2-c2cccs2)cc1
 : 1.5 | 9.4
39. Cc1cccc(N2CCN(CCNC(=O)C3CCN(c4nnc(-n5cccc5)s4)CC3)CC2)c1C
 : 1.1 | 0.99
40. Cc1ccc(CN2CCC(CNC(=O)c3ccc4c(c3)NC(=O)C(CC(C)C)N4)CC2)cc1 (centres undefined)
 : 1.1 | 0.078
41. CCC1Oc2ccc(C)cc2N(CC(=O)N2CCN(c3cccc(C(F)(F)F)c3)CC2)C1=O (centres undefined)
 : 0.94 | -1.2
42. O=C(CN1C(=O)CSc2ncccc21)Nc1ccccc1Cl
 : 1 | 0.077
43. CN(CC(=O)O)S(=O)(=O)c1ccc2[nH]c(=O)c(=O)[nH]c2c1
 : 0.97 | -0.72
44. O=C(CSc1nccn1-c1ccccc1)Nc1ccc(Cl)cc1
 : 0.7 | -11
45. COc1ccccc1CNc1ncnc2c1cnn2-c1ccc(C)cc1C
 : 0.95 | -1.4
46. Cc1cccc(C(=O)Nc2cc(C(F)(F)F)ccc2OCC(F)(F)C(F)F)c1
 : 0.98 | -0.28
47. Cc1ccc(-c2cc(C(=O)NCC3COc4ccccc4O3)c3ccccc3n2)cc1C (centres undefined)
 : 0.97 | -0.86
48. CCOC(=O)c1c(C)n(CCOc2ccccc2OC)c2ccc(O)cc12
 : 1 | 0.022
49. COc1ccc(CNC(=O)c2cc(=O)[nH]c3ccc(S(=O)(=O)N4CCCC4)cc23)cc1
 : 0.98 | -0.23
50. CCCSc1oc(-c2ccccc2)nc1S(=O)(=O)c1ccc(F)cc1
 : 1 | 0.064

Other compounds:
Each structure is followed by: CBX7 inh | CBX7 inh z-score
51. COc1cccc(Nc2nc(-c3ccccc3F)nc3ccccc23)c1
 : 0.33* | -0.88*
52. COCCCNC(=O)C1CCC(=O)N(c2ccc(OC)cc2)C1c1ccc(OC)c(OC)c1 (centres undefined)
 : 1.1 | 1.6
53. Cc1ccc(CNC(=O)C2CCC(=O)N2Cc2ccc(F)cc2)cc1 (centres undefined)
 : 1.1 | 2.1
54. O=C(Cn1nc(-c2ccccc2)ccc1=O)NCc1ccc(F)cc1
 : 1 | 0.81
55. COc1c(Cl)ccc(Cl)c1C(=O)Nc1cccc(C)c1
 : 1 | 0.065
56. O=C(c1cc(-c2ccc(Cl)cc2)on1)N1CCCC1
 : 0.98 | -0.27
57. COC(=O)c1cc2oc(C)cc2n1Cc1nc(-c2cccc(C)c2)oc1C
 : 0.89 | -0.43
58. CCCOc1ccc(C(=O)Nc2sc3c(c2C(=O)OCC)CCCC3)cc1
 : 1.3 | 10
59. O=C(NCC1CCCO1)C1CCCCN1S(=O)(=O)c1ccc(F)cc1 (centres undefined)
 : 1 | 0.22
60. CCOc1ccc(S(=O)(=O)c2cn(Cc3ccccc3Cl)c3ccc(OC)cc3c2=O)cc1
 : 0.93 | -2.6
61. Cc1nc2sccn2c1-c1csc(Nc2ccc(Cl)cc2)n1
 : 0.75&0.83 | -2.8&-0.19
62. COc1ccc(-c2cc(CCCC(=O)NCCc3ccc(OC)cc3OC)no2)cc1
 : 0.95 | -2.2
63. O=C(Cn1c(N2CCOCC2)nc2ccccc21)c1ccccc1
 : 1.1 | 1.8
64. CC1CCCC(NC(=O)CN2C(=O)CSc3ccccc32)C1C (centres undefined)
 : 0.97 | -0.76
65. COc1ccc(-n2c(/C=C\c3cccc(C(F)(F)F)c3)nc3cc(OC)c(OC)cc3c2=O)cc1Cl
 : 0.96 | -1.1
66. Cc1c(C(=O)Nc2ccccc2F)sc2ncn(CC(=O)N3CCC(C)CC3)c(=O)c12
 : 1 | 0.49
67. COc1ccc(-c2ccc(CCC(=O)O)n2-c2ccccc2C(F)(F)F)cc1
 : 1 | 0.29
68. COC(=O)c1c(NC(=O)c2ccc(OC)cc2)sc2c1CCC(C)C2 (centres undefined)
 : 1 | 0.76
69. O=C(c1c[nH]c2ccc(S(=O)(=O)Nc3ccc4c(c3)OCCO4)cc2c1=O)N1CCCC1
 : 0.92 | -1.4
70. CCOC(=O)c1cnc2cc(Cl)c(OC)cc2c1Nc1cc(OC)ccc1OC
 : 1.1 | 2.6
71. CCN(CC)C(=O)Cn1cnc2sc(C(=O)Nc3ccc(C)cc3)c(C)c2c1=O
 : 0.99 | -0.16
72. CC1CCCC(NC(=O)c2c[nH]c3ccc(S(=O)(=O)Nc4ccccc4F)cc3c2=O)C1C (centres undefined)
 : 0.95 | -0.92
73. O=C1CC(c2ccc(F)cc2)c2cc3c(cc2N1)OCCO3 (centres undefined)
 : 0.87 | -1.1
74. COCCNC(=O)Cc1c(C(=O)O)[nH]c2ccc(Cl)cc12
 : 1.1 | 0.92
75. CCn1c(/C=C/c2c(C)[nH]c3ccccc23)nc2ccccc2c1=O
 : 0.83 | -1.8
76. Cc1ccccc1-c1nc(C(=O)NC(C)c2ccccc2)c(C)o1 (centres undefined)
 : 0.96 | -0.8
77. Cc1ccccc1OCCn1cnc2ccccc21
 : 0.99 | -0.13
78. COc1ccc(Cl)cc1NC(=O)CSc1nccn1-c1cccc(Cl)c1
 : 0.82 | -3.3
79. CC1(C)CC(=O)N(CC(=O)NCCC2=CCCCC2)c2ccccc2S1
 : 0.91 | -1.8
80. COc1ccc(Cl)cc1NC(=O)c1c(-c2ccccc2)noc1C
 : 1.3 | 1.5
81. CN(C)CCNC(=O)CCn1nc(-c2ccc(Cl)cc2)ccc1=O
 : 1.1 | 1.7
82. CC(Sc1oc(-c2cccs2)nc1S(=O)(=O)c1ccc(Cl)cc1)c1ccccc1 (centres undefined)
 : 0.99 | -0.015
83. CC(=O)N1CCC(N(C(=O)Nc2ccc(C)c(C)c2)C2CCCCCC2)CC1
 : 1.1 | 1.9
84. Clc1ccc2nc(-c3ccncc3)c(Nc3ccc4c(c3)OCO4)n2c1
 : 0.88 | -1.2
85. COc1ccc(CNC(=O)c2ccc3c(=O)n4c(nc3c2)CCCCC4)cc1
 : 0.98 | -0.27
86. CCN1C(=O)c2ccccc2S(=O)c2ccc(C(=O)NCC(OC)OC)cc21 (centres undefined)
 : 1 | 0.061
87. COc1ccc(OC)c(NC(=O)c2c(NCc3ccc(OC)c(OC)c3)sc3c2CCCCC3)c1
 : 0.56 | -23
88. CC1(C)CC(=O)N(CC(=O)NC2CCCc3ccccc32)c2ccccc2S1 (centres undefined)
 : 0.95 | -1.1
89. O=C1CC(c2cccc3ccccc23)c2cc3c(cc2N1)OCCO3 (centres undefined)
 : 0.97 | -1.1
90. c1ccc(Cc2nc(NCc3ccccn3)c3c4c(sc3n2)CCCC4)cc1
 : 0.92 | -0.76
91. CCC(=O)N1CCc2cc(S(=O)(=O)NCCC(C)C)ccc21
 : 1.1 | 1.1
92. CCC(C)NC(=O)Cn1nc(-c2ccccc2)ccc1=O (centres undefined)
 : 1 | 0.81
93. O=c1[nH]cnc2nc(-c3ccc(F)cc3)c(-c3ccc(F)cc3)nc12
 : 1 | 0.62
94. Cc1[nH]c2ccc(OCc3ccccc3)cc2c1CCNC(=O)COc1ccc(F)cc1F
 : 0.53 | -6.8
95. Cc1cc2cc(CCNS(=O)(=O)c3ccc(F)cc3)c(=O)[nH]c2cc1C
 : 0.95 | -1.2
96. O=C(NCCCSC1CCCCC1)c1ccc2nc(N3CCOCC3)sc2c1
 : 1.1 | 0.71
97. COc1cc(NS(=O)(=O)c2ccc(NC(=O)c3ccc(C)cc3)cc2)nc(OC)n1
 : 1.2 | 3.2
98. CCOC(=O)N1CCC(NC(=O)c2cc3c(-c4ccc(OC)c(OC)c4)nn(C)c3s2)CC1
 : 1 | 0.52
99. CCc1ccc2nc(N3CCC(C(=O)NCCN4CCCCCC4)CC3)sc2c1
 : 1.9 | 9.8
100. O=C(Nc1nnc(-c2ccc(Cl)cc2Cl)s1)c1ccc(S(=O)(=O)N2CCCC2)cc1
 : 1 | 1.9

Additional entries:
Each structure is followed by: CBX7 inh | CBX7 inh z-score
101. CCCC(=O)Nc1cc(-c2nc3ncccc3o2)ccc1Cl
 : 1 | 1.4
102. O=C(Nc1nnc(C2CC2)o1)c1ccc(S(=O)(=O)N2CCCCCC2)cc1
 : 0.0011* | -2.8*
103. COc1ccc(CNC(=O)C(N)=O)cc1
 : 1 | 0.91
104. COc1cccc(CNC(=O)Cc2c(C(=O)O)[nH]c3ccccc23)c1
 : 0.98 | -0.43
105. Cc1nnc(Sc2cc(C(=O)NCCN3CCCCCC3)c3ccccc3n2)s1
 : 1.1 | 1.1
106. CCc1ccc(S(=O)(=O)Nc2ccc(-c3cn4ccccc4n3)cc2)cc1
 : 0.95 | -0.81
107. CCCCSCCCNC(=O)CS(=O)(=O)Cc1nc(-c2ccc(OC)cc2)oc1C
 : 1.3 | 0.79
108. O=c1cc(N2CCN(c3ccccc3)CC2)[nH]c(=O)n1-c1ccc(Br)cc1
 : 1.1 | 1
109. Cc1ccnc(NC(=O)C2CC(=O)N(c3ccc(Cl)cc3)C2)c1 (centres undefined)
 : 0.99 | -0.55
110. COc1ccc(C(=O)c2oc3ccccc3c2NC(=O)Cc2ccccc2)cc1
 : 1.1 | 0.65
111. CCCN(CCC)CCCNC(=O)c1cnc(Nc2ccccc2OC)c2ccccc12
 : 1.2 | 3.7
112. COc1cccc(C2=NOC(C(=O)NC3CCCCC3)C2)c1OC (centres undefined)
 : 0.99 | -0.43

Source: PubChem
